miR-21 FLuc: raises the signal of a miR-21 reporter; HeLa miR-21 FLuc reporter, luciferase, 48 h; Potency, µM (series often up to 38.3 µM), for inactives: at the highest dose reporter change, positive = more light; 340,000 tested, under 10 active; active = well fitted rising curve with a large enough effect; inconclusive = small, poorly fitted or top-dose-only effect; inactive = no such curve, though single readings can be large or run the other way;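 also: % of control where 0% means no effect; miR-21 action dims this reporter so a rising signal means less miR-21 action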
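Using DMEM plus 10% FBS, HeLa miR-21-FLuc cells are incubated with test compounds (final up to about 40uM) for 48 hours; firefly luciferase signal is then imaged following reagent-mediated lysis.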
GLA inh pH 4.5: blocks human alpha-galactosidase A at pH 4.5; purified enzyme, 4-MU-alpha-Gal fluorescence, pH 4.5; activity change, negative = inhibition, % at 105 µM; 230,000 tested, under 10 active; inconclusive = small, poorly fitted or top-dose-only inhibition, or a rising curve; inactive = flat fitted curve, though single readings scatter; no compound was filed as active;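 also: 0% = full activity with enzyme and -100% = basal without enzyme; dose as in the result columns while the protocol names 77 µM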
Target sequence (P06280 whole entry, looked up): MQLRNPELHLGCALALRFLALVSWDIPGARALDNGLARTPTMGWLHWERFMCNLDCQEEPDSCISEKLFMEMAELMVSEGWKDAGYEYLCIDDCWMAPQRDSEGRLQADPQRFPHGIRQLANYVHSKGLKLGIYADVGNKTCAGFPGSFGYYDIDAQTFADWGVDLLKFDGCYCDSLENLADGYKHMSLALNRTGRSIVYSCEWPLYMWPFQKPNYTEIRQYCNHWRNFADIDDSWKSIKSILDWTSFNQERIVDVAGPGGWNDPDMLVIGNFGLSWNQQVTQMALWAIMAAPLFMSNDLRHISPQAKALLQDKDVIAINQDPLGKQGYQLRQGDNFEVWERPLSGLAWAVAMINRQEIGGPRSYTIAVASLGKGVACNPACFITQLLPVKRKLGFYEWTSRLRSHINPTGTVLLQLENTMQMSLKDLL
Rango-impB inh: inhibitors of Rango-importin beta complex formation. AID 540263. hit rate 0.031% among 340,000. Q14974. Rango CFP/YFP FRET sensor + importin beta, 45 min. Potency, µM (doses to about 92.2 µM), without a hit: at the top dose inhibition of complex formation; active = rising FRET ratio curve, often small or poorly fitted; inconclusive = mostly compound fluorescence or quenching in the first reads; inactive = flat curves in all reads;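 also: potency is read from the fitted curve at half-maximal effect; 0% = DMSO wells and 100% = buffer wells lacking importin beta; nearly all actives have a fitted effect of over 15% in size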
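FRET biosensor Rango (snurportin 1 IBB between N-terminal EYFP and C-terminal Cerulean), 50 nM in PBS/1 mM DTT/0.02% Tween-20/0.1% BSA, preincubated 5 min RT with compound; 0.125 microM importin beta added, 45 min RT, CFP/YFP FRET ratio read.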
Rango dissoc inh: prevents RanGTP from dissociating the Rango-importin beta complex; O95149+P62826; Potency, µM (series often up to 46.1 µM), for the others: at the top dose activity change, negative = inhibition; hit rate 0.071% among 340,000; Biochemical FRET Rango-importin beta, RanGTP-induced dissociation; active means falling FRET ratio curve, often poorly fitted, with flat reads before Ran was added; inconclusive means other falling curves, or compound fluorescence or quenching; inactive means flat or rising ratio curve;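 also: potency is read from the fitted curve at half-maximal effect; % of control where 0% means no effect; nearly all actives have a fitted effect of over 45% in size; -100% = wells without RanGTP and RCC1; the record marks most hits as doubtful in a second field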
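Rango (0.1 uM)–importin beta (0.25 uM) complex; RanGTP-RCC1 trigger; 45 min RT; CFP/YFP FRET read.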
* hit, by the source's call; ? = inconclusive; nt = not tested or not shown. Not all compounds are listed; the hit share may differ from the screen's.

molecule	miR-21 FLuc	GLA inh pH 4.5	Rango-impB inh	Rango dissoc inh
COc1ccc(-c2cc3c(=O)n(CC(=O)NCCCN4CCN(Cc5ccccc5)CC4)ncn3n2)cc1	-27.6%	nt	0.3%	-1.3%
Cc1ccc(C(=O)N/C(=C\c2ccccc2)C(=O)NCCCn2ccnc2)cc1	3.6%	-7.9	0.0%	0.4%
CC(NCc1ccc2c(c1)OCO2)C(=O)NC1CCCCC1 (stereo not drawn)	-0.8%	-27.5	4.1%	-16.9%
N#Cc1cccc(CN2CCC(=O)N(CCO)CC2)c1	-1.0%	nt	2.3%	-1.9%
C/C(=N\NC(=O)c1cccnc1)c1c(O)cc(C)oc1=O	-3.9%	-2.5	-3.7%	-7.6%
CC1(C)CC(N2CCC(=O)N(C3CC(C)(C)NC(C)(C)C3)C2)CC(C)(C)N1	-0.7%	10.2	-0.6%	-1.5%
Cc1ccc2nc(Cl)c(/C=N/NC(=O)[C@H]3C[C@@H]3c3ccccc3)cc2c1	-5.9%	-6.4	0.2%	0.9%
COc1cc([N+](=O)[O-])cc(/C=N\NC(=O)C2COc3ccccc3O2)c1O (stereo not drawn)	11.0%	-15.1	-1.6%	3.9%
Fc1ccc(NC(=S)N2CCCN(c3ccc(C(F)(F)F)cn3)CC2)c(F)c1	?	-8.1	0.1%	18.2%
Cc1cc(C)n(-c2ccc(C(=O)OCC(=O)Nc3ccc(Cl)cc3[N+](=O)[O-])cc2)n1	0.6%	-7.8	0.2%	2.1%
CN(CC1CCN(CCc2cccc(C(F)(F)F)c2)CC1)C(=O)c1ccc(F)cc1	6.7%	nt	-6.6%	-1.2%
Cc1cccc(C)c1NC(=O)c1cnccn1	1.1%	nt	1.4%	-11.8%
CCOc1ccc(OCC(=O)OCC(=O)N(CC(C)C)c2c(N)n(Cc3ccccc3)c(=O)[nH]c2=O)cc1	nt	nt	1.9%	-12.1%
CCOC(=O)C1=C(COC(=O)/C=C/c2ccc(OC)cc2OC)NC(=O)NC1C (stereo not drawn)	nt	nt	0.4%	9.1%
COc1c(S(=O)(=O)n2nc(C)cc2C)ccc(Cl)c1Cl	-17.3%	2.0	-14.1%	-8.9%
O=C1CCN(Cc2nnnn2CC2CCCO2)c2ccccc2N1 (stereo not drawn)	-7.8%	1.2	0.4%	12.8%
O=C(O)c1ccc(CNC(=O)c2ccccc2NC(=O)c2ccc([N+](=O)[O-])cc2)cc1	-1.9%	-2.1	-4.9%	9.0%
CCOc1ccc(C2/C(=C(\O)c3ccc4c(c3)OCCO4)C(=O)C(=O)N2CCN2CCOCC2)cc1OC (stereo not drawn)	-1.4%	nt	-1.2%	3.3%
COc1ccc(NC(=O)/C(=C\c2cccnc2)NC(=O)c2cccs2)cc1	-2.9%	-1.1	2.3%	31.6%
FC(F)(F)c1cc(-c2ccco2)nc(N2CCOCC2)n1	-3.3%	1.1	0.2%	0.6%
Cc1cccc(NC(=O)C2CCCN(S(=O)(=O)c3cccc4cccnc34)C2)c1 (stereo not drawn)	4.7%	5.2	-2.3%	13.3%
CCOC(=O)c1c(NC(=O)c2ccc(C)cc2)sc2c1CC(C)(C)OC2	-6.6%	-1.7	0.6%	22.0%
CCc1cccc(CC)c1N(COC)C(=O)Cn1c(CO)nc2ccccc21	-11.2%	-0.4	?	5.4%
CCOC(=O)C1(CCOC)CCN(Cc2cnc(-c3cccc(C)c3)nc2)CC1	-10.4%	3.5	0.1%	7.7%
COc1ccc(NC(=O)c2ccc(Cl)c(S(=O)(=O)NCC3CCCO3)c2)c(OC)c1 (stereo not drawn)	0.4%	nt	0.6%	-4.0%
COc1ccc(/C=N/NC(=O)c2nn(-c3ccc(Cl)cc3)c(=O)c3c(N)scc23)cc1	27.1%	-3.0	?	-16.3%
CC(=O)c1c(C)[nH]c(C(=O)N2CCN(C(=O)c3ccco3)CC2)c1C	0.0%	0.5	4.6%	2.4%
C=CCN(CC=C)C(=S)NC(=O)Cc1cccc2ccccc12	-10.8%	6.8	-0.7%	-6.5%
CCN(CC)C(=O)N1CCN(S(=O)(=O)c2ccc(C)c(C)c2)CC1	-1.4%	-4.1	-2.7%	10.6%
c1ccc2c3c(c(CN4CCCCC4)cc2c1)COC3	0.0%	-16.0	-1.3%	1.0%

(continued)
molecule	miR-21 FLuc	GLA inh pH 4.5	Rango-impB inh	Rango dissoc inh
CC(=O)C1C(c2ccccc2)c2c(noc2C)CC1(C)O (stereo not drawn)	2.8%	-2.5	-5.6%	7.0%
CCOC(=O)C1(Cc2cccc(OC)c2)CCCN(S(=O)(=O)c2cccnc2)C1 (stereo not drawn)	-2.3%	2.4	-6.2%	-7.2%
CC1CC/C(=N/Nc2ccccc2)C(=O)N1 (stereo not drawn)	-25.3%	-10.9	1.2%	-17.1%
Cc1noc(C)c1COc1cccc(C(=O)OCC(=O)NCCN2C(=O)CSC2=O)c1	-2.1%	-6.5	-2.7%	14.7%
Cc1ccc2c(c1)N(CC(=O)NCCc1ccccc1)C(=O)c1cccnc1O2	-4.3%	nt	2.0%	0.1%
CC(C)C[C@H](NC(=O)c1nc[nH]c1C(=O)NCc1ccc(CNC(=O)OC(C)(C)C)cc1)C(=O)OCc1ccccc1	5.9%	nt	-3.8%	-7.3%
Cc1ccc(C2=NN=C(NC(=O)CSc3nc(C)cc(C)n3)SC2)cc1	?	-29.5	nt	nt
COc1ccc(CCNC(=O)COC(=O)c2sc(C)nc2C)cc1	nt	nt	-1.5%	10.2%
COc1cc(/C=C(\C#N)C(=O)c2c[nH]c3ccccc23)cc(OC)c1O	-2.9%	-3.9	?	?
CC(=O)c1ccc(OCC(O)CN2C(C)CCCC2C)cc1 (stereo not drawn)	-4.3%	6.2	4.0%	-4.2%
O=C(NCC1CCCO1)C1C2C=CC3(CN(Cc4cccs4)C(=O)C13)O2 (stereo not drawn)	-0.4%	2.2	-0.7%	-5.1%
Cc1cc(C)c(CSc2nnnn2-c2ccc(C(=O)O)cc2)c(C)c1	-2.1%	nt	-2.8%	4.7%
Cc1ccc(C2=NN(S(C)(=O)=O)C(c3ccc4nccnc4c3)C2)cc1 (stereo not drawn)	-31.0%	-0.4	0.1%	-11.9%
Cc1cc(=S)[nH]c2c(C)cccc12	5.3%	-7.5	-1.9%	16.0%
COc1ccccc1-c1cc(C(=O)Nc2sc3c(c2C#N)CCC(C)C3)c2ccccc2n1 (stereo not drawn)	-2.6%	-0.8	5.2%	20.9%
CCOC(=O)c1c(C)[nH]c(=S)c(C#N)c1-c1ccc(OC)cc1	-14.0%	-3.1	?	-9.4%
CC(=O)N1CC23C=CC(CC2CC12CCCCCC2)O3 (stereo not drawn)	6.0%	nt	4.5%	-11.1%
NNC(=O)CN1C(c2ccccc2)=Nc2ccc(Br)cc2C1c1ccccc1 (stereo not drawn)	9.5%	3.5	-0.9%	3.6%
CNC(=O)CC1C(=O)N(c2ccc(Cl)cc2)C(=S)N1CCc1ccc(OC)c(OC)c1 (stereo not drawn)	14.3%	-8.6	5.1%	10.1%
Cc1ccc(C(=O)N2CCN(S(=O)(=O)c3ccccc3C#N)CC2)cc1S(=O)(=O)N1CCOCC1	nt	nt	-0.3%	0.7%
COC(=O)c1c(NC(=O)Cc2cccs2)sc2c1CCCC2	-28.4%	-2.4	-5.1%	5.1%
CCN1CCN(CCCNC(=O)c2cc3sccc3n2CC)CC1	-6.8%	3.9	0.5%	5.3%
CCOC(=O)Cc1nc(-c2ccccc2)n[nH]1	-18.4%	10.4	-1.0%	-8.5%
CCOc1ccc(S(=O)(=O)NCCC(=O)NCC2CCCO2)cc1 (stereo not drawn)	nt	nt	-0.6%	-15.4%
COC(=O)c1ccc(C2c3[nH]c4ccccc4c3C[C@H]3C(=O)N(C)CC(=O)N23)cc1 (stereo partly drawn)	-6.4%	nt	-2.8%	-24.5%
Cc1ccc(C)c(N(C(=O)Cc2cccs2)C(C(=O)NC2CCCC2)c2ccc(C)o2)c1 (stereo not drawn)	-9.9%	1.2	-2.6%	0.7%
CNC(=O)Cc1csc2ccc(C)cc12	3.2%	4.0	-1.0%	-2.0%
CCCN(CCC)S(=O)(=O)c1ccc(Cl)c(OC)c1	-11.2%	-11.9	-3.6%	39.9%
Cc1ccnn1CC(=O)N/N=C/c1c[nH]c2ccccc12	-3.1%	2.6	-0.3%	10.5%
CCCCn1c(CN2C(=O)c3ccccc3C2=O)nc2ccccc2c1=O	0.4%	2.3	-1.0%	-12.3%

(continued)
molecule	miR-21 FLuc	GLA inh pH 4.5	Rango-impB inh	Rango dissoc inh
O=C(NC(=S)Nc1nc(-c2ccccc2)cs1)c1cccs1	-10.0%	-1.1	-0.6%	-10.0%
CC(O)CCC(=O)NCCNC(=O)CCC(C)O (stereo not drawn)	-14.2%	13.1	-1.4%	4.0%
COCCNC(=S)N1C2CCC1CC(NC(=O)NC13CC4CC(CC(C4)C1)C3)C2 (stereo not drawn)	-12.6%	-18.8	1.6%	2.9%
O=C(NNC(=O)c1cc(-c2ccc(Cl)cc2Cl)nc2ccccc12)Nc1ccccc1	-6.7%	-1.0	3.6%	-10.2%
Cc1c(Br)c([N+](=O)[O-])nn1CC(=O)Nc1ccc2nc3n(c(=O)c2c1)CCCC3	-0.3%	nt	-2.8%	5.5%
O=C1OC(N2C(=O)CC[C@H]2C(=O)Nc2ccc(F)c(F)c2)c2ccccc21 (stereo partly drawn)	-0.6%	nt	0.6%	-8.1%
COc1ccc(C(=O)C2CCCN(C(=O)Cn3cncn3)C2)cc1OC (stereo not drawn)	-2.0%	nt	-1.4%	11.4%
Nn1c(-c2ccco2)n[nH]c1=S	-1.7%	1.3	4.6%	9.4%
c1cc2c3c(cccc3c1)-c1cnccc1-2	nt	nt	4.3%	-6.4%
c1ccc2sc(N3CCOCC3)nc2c1	-45.7%	-0.3	-0.4%	-9.2%
Nc1c(Nc2ccccc2)c2ccccc2oc1=O	-16.0%	0.2	6.8%	-16.6%
COc1cc(SC)ccc1C(=O)N(Cc1ccccc1)c1ccccc1	4.3%	nt	-3.9%	-2.0%
CCc1ccc(NS(=O)(=O)c2cccc3nsnc23)cc1	-16.6%	nt	5.7%	10.2%
CCCCc1c(C)c2ccc(OCC(C)=O)cc2oc1=O	-34.8%	3.0	-0.8%	8.2%
Cc1cc(NC(=O)COC(=O)C(Nc2ccc(C(F)(F)F)cc2Cl)C(C)C)no1 (stereo not drawn)	20.1%	-7.5	-2.1%	-8.7%
CCSc1ncc(Cl)c(C(=O)Nc2ccccc2)n1	0.2%	-5.3	-4.3%	-10.7%
COC(=O)c1cncc(O)c1	-3.8%	0.4	-1.5%	-1.6%
Cn1c(=O)c(C(=O)CN2CCN(Cc3ccc4c(c3)OCO4)CC2)c(N)n(Cc2ccccc2)c1=O	-2.0%	4.2	-3.0%	-1.1%
OCCN1CCN(CC(O)COc2ccc3c(c2)OCO3)CC1 (stereo not drawn)	-4.2%	-1.8	5.8%	26.7%
COc1ccc(CCNc2ncnc3sccc23)cc1OC	26.3%	1.3	?	-10.1%
Cc1ccsc1C(=O)OCC(=O)N(C)c1c(N)n(Cc2ccccc2)c(=O)[nH]c1=O	nt	nt	6.8%	-0.5%
Cc1cccc(NC(=S)N(C)Cc2cn(C)c3ccccc23)c1	-15.8%	-3.9	-2.4%	1.4%
COc1cccc(CNC(=O)C2CC(=O)N(C3CCCCCCC3)C2)c1 (stereo not drawn)	3.5%	nt	0.0%	25.3%
c1ccc(Oc2cc(-c3ccccc3)ncn2)cc1	-56.8%	-8.8	-0.5%	0.8%
Cc1ccc(S(=O)(=O)NCCS(=O)(=O)N2CCN(c3ccc(F)cc3)CC2)cc1	nt	nt	-4.2%	-7.4%
COCCNC(=O)/C(C#N)=C/C(C)=C/c1ccccc1	-3.9%	-14.4	5.4%	-11.1%
N#CCSc1nnc(-c2ccccc2)c(-c2ccccc2)n1	-1.9%	-10.4	0.7%	-6.2%

Screening results deposited in PubChem BioAssay by National Center for Advancing Translational Sciences (NCATS).
